Screens deposited in PubChem by National Center for Advancing Translational Sciences (NCATS).
StopGo FLuc: lowers the firefly signal of an FMDV 2A StopGo reporter; 0.23% of 120,000 active; Potency, µM (doses to about 57.5 µM), for inactives: top-dose signal change, negative = less light; HEK cells with a luciferase reporter of 2A StopGo recoding; active = well fitted falling curve with a large enough effect; inconclusive = small, poorly fitted or top-dose-only effect; inactive = no such curve, though single readings can be large or run the other way; further: nearly all actives have a fitted effect of over 60% in size; overnight with compound
StopGo RLuc: lowers the Renilla signal of an FMDV 2A StopGo reporter; HEK cells with a luciferase reporter of 2A StopGo recoding; Potency, µM (titrated, usually from 57.5 µM), for the others: top-dose signal change, negative = less light; 0.32% of 120,000 active; AID 1745857; active means well fitted falling curve with a large enough effect; inconclusive means small, poorly fitted or top-dose-only effect; inactive means no such curve, though single readings can be large or run the other way; further: nearly all actives have a fitted effect of over 55% in size; overnight with compound
Starred values were filed as active, the others as inactive; ? = inconclusive; [ ] = another dose, or the depositor's remark. On the % scale 0 is the no-effect control and ±100 the full control effect; potency means the concentration at half of the fitted maximal effect.

Values run as follows: StopGo FLuc	StopGo RLuc
CCCCN1C(=O)N(c2ccc(Cl)cc2)C(C)(O)CC1(C)C (stereo not given)
  8.7%	0.4%
O=C(CCc1c[nH]c2ccccc12)NCc1ccncc1
  -9.9%	-13.6%
Cc1ccc(SC(C)C(=O)NC2CCCC2)c(C)c1 (stereo not given)
  -0.9%	14.4%
CCCCn1c(=O)[nH]c(=O)c2c1nc(CSc1nccn1-c1cccc(C)c1)n2C
  1.6%	-1.4%
COc1cc(C)ccc1OCCSc1nnc(-c2cccs2)o1
  -3.8%	-13.5%
NC(=O)C1CCN(CCCNC(=O)c2ccc3ccccc3n2)CC1
  -12.3%	-8.6%
Cc1ccccc1Nc1c(-c2cccc(O)c2)nc2cnccn12
  11.9%	11.6%
COc1ccc(-n2ccnc2SCC(=O)Nc2cccc(OC)c2)cc1
  ?	-38.0%
NS(=O)(=O)c1ccc(N/N=C/c2ccc(-c3ccccc3Br)o2)c([N+](=O)[O-])c1
  0.0%	?
COc1ccc(CNC(=O)C(=O)Nc2cccc(C)c2C)cc1
  0.0%	7.2%
Cc1ccc(NC(=O)CN2C(=O)CCn3nc(-c4cccn4C)cc32)cc1
  -12.7%	-13.3%
O=C(Nc1nnc(C2CCCCC2)s1)c1ccc2ccccc2n1
  0.0%	?
COc1cc(C=O)ccc1OCCCCOc1c(C)cc(C)cc1Cl
  -2.8%	-6.6%
O=C(OCC12CC3CC(CC(C3)C1)C2)c1cc([N+](=O)[O-])cc([N+](=O)[O-])c1
  0.0%	0.0%
O=S(=O)(c1ccc(Br)cc1)N1CCN(c2ccc(Nc3ccccc3)nn2)CC1
  -3.5%	15.7%
Cc1nc2cc(-c3ccccc3)nn2c(C)c1CCC(=O)N1CCN(c2ccccc2)CC1
  ?	-7.0%
CC1=C(c2ccc(C(C)C)cc2)S(=O)(=O)NC1=NCc1ccccc1Br
  -9.8%	125.8%[activator]
CN(C(=O)c1ccc(C2SCCS2)cc1)C1CCCc2ccccc21 (stereo not given)
  132.3%[activator]	16.9%
Cc1cc(NC(=O)c2ccco2)cc(-c2nc3cc(Cl)ccc3o2)c1O
  -5.6%	-9.9%
COc1ccccc1C(=O)Nc1ccccc1OCc1cc(=O)n2c(C)csc2n1
  15.7%	1.3%

An excerpt of these results, with bars between the fields.
Structure | StopGo FLuc | StopGo RLuc
Cc1ccccc1Nc1c(-c2cccc(O)c2)nc2cnccn12 | 11.9% | 11.6%
COc1ccc(-n2ccnc2SCC(=O)Nc2cccc(OC)c2)cc1 | ? | -38.0%

The list goes on:
Values run as follows: StopGo FLuc	StopGo RLuc
O=C(O)COc1ccc(/C=C2/NC(=O)NC2=O)cc1I
  -4.1%	-1.4%
CN(Cc1c(F)cccc1Cl)C(=O)CCNC(=O)Nc1ccccc1
  14.6%	27.2%
Cc1ccc(C2CC(=O)N(CCCCCC(=O)O)C(=O)C2)cc1
  ?	-4.9%
Cc1cc(NC(=O)CCNS(=O)(=O)c2ccc3c(c2)CCCC(=O)N3)ccc1Br
  -11.9%	-0.8%
CSCc1ccc(C(=O)NCc2coc(-c3cccs3)n2)cc1
  0.0%	23.0%
Cc1nc(CNCc2cccc(NC(=O)c3cccc(F)c3)c2)cs1
  3.0%	-12.8%
Cc1ccc(CSc2nc3cccnc3n2Cc2ccc(C(=O)NCCc3cccs3)cc2)cc1
  105.9%[activator]	7.4%
Cc1oc(-c2nc(C#N)c(NC(C)C)o2)cc1S(=O)(=O)N(C)C
  9.8%	7.3%
CC1=C(c2ccc(C)c(C)c2)S(=O)(=O)N=C1N1CCC(C(=O)N2CCCCC2)CC1
  5.2%	2.8%
COC(=O)c1cccc(NC(=O)Nc2cc(-c3nc4ccccc4o3)ccc2OC)c1
  231.9%[activator]	30.1%[activator]
CCOC(=O)c1cc(S(=O)(=O)N2CCN(c3cc(C)ccc3C)CC2)[nH]n1
  -12.9%	21.7%
COc1ccccc1-c1nc2c(c(SCC(=O)Nc3ccc(C)c(C)c3)n1)Cc1c(CO)cnc(C)c1O2
  -13.8%	-8.5%
CCCS(=O)(=O)N1CCC(N2CCN(Cc3ccc(F)cc3)C(=O)C2=O)CC1
  -7.7%	-5.5%
COc1ccc(-c2cc(C(F)(F)F)nc(S(=O)(=O)CCCC(=O)Nc3cccc(O)c3)n2)cc1OC
  ?	?
CN1CCN(C(C(=O)O)c2c[nH]c3cc(Br)ccc23)CC1 (stereo not given)
  -14.9%	-9.0%
O=C(Nc1c(NCc2ccccc2)c2ccccc2oc1=O)c1ccccc1Cl
  11.0%	17.4%
O=C(NCCc1ccccc1)C1CCCN(c2ccc3nnc(C(F)(F)F)n3n2)C1 (stereo not given)
  34.9%	2.1%
Cc1cc2oc(C(=O)Nc3ccc(S(=O)(=O)N4CCCC(C)C4)cc3)cc(=O)c2cc1C (stereo not given)
  1.6%	-0.4%
O=Cc1cccn1-c1ccc(F)cc1
  0.5%	-5.6%
CCOC(=O)c1c(C)oc2nc(C)nc(N3CCN(c4cccc(C)c4C)CC3)c12
  -7.9%	1.1%
COc1ccc(-c2cn3c(n2)sc2cc(C(=O)NC4CCCCCC4)ccc23)cc1
  40.4%[activator]	14.4%
O=Cc1cc2ccc(Br)cc2[nH]1
  -1.6%	-15.8%
Cc1cccc(Cn2c(NCc3ccco3)nc3c2c(=O)[nH]c(=O)n3C)c1
  64.6%[activator]	73.6%[activator]
CCc1sc(C(=O)NC(C)CC)cc1C (stereo not given)
  48.4%[activator]	6.9%
Cc1ccc(C(=O)C(NC(=O)c2ccco2)Nc2ccc(C(=O)O)cc2)cc1 (stereo not given)
  53.2%[activator]	-0.3%
CCC1CCCCN1CCCNC(=O)c1cc2c(Cl)nc3ccc(C)cc3c2s1 (stereo not given)
  -15.1%	-5.0%
CSC(C)C(=O)Nc1sccc1C#N (stereo not given)
  11.8%	2.7%
COc1ccc(C(CC(=O)Nc2cccc(-c3ccno3)c2)n2cccc2)cc1 (stereo not given)
  ?	3.6%
COc1ccc(-c2noc(CSc3nc4ccccc4[nH]3)n2)cc1
  ?	?
CCOc1ccc2c(c1)S/C(=C\c1cccc(Oc3ccc(Cl)cc3)c1)C(=O)N2
  4.0%	8.9%
CCCOC(=O)C(C)Oc1ccc2c(=O)c(-c3ccc(Cl)cc3)coc2c1 (stereo not given)
  113.5%[activator]	-3.0%
COC(=O)C(C)N1C(=O)S/C(=C/c2cn(CC(N)=O)c3ccccc23)C1=O (stereo not given)
  -11.4%	1.1%
Cc1ccc(Cn2nc(C)c(C(=O)OCC(=O)c3cc(C)n(C)c3C)c2Cl)cc1
  28.1%	8.7%
O=C(CCn1cnnn1)Nc1ccccc1
  29.4%	-2.4%
O=C(CSc1nnc(-c2cccs2)o1)Oc1ccccc1
  -22.2%	-11.1%
Cc1cc(OCCn2cc(C(=O)c3ccco3)c3ccccc32)ccc1Cl
  -10.2%	-18.8%
Cc1ccc(NC(=O)CSc2nc(-c3ccco3)ccc2C#N)cc1Cl
  9.1%	5.0%
COc1ccc(-n2c3c(cc(-c4nc(-c5ccc(C)cc5)cs4)c2=O)C(=O)CC(C)(C)C3)cc1
  -11.0%	-0.4%
Cc1cc(C)c2[nH]c(C)c(CN3CCC(C)CC3)c(=O)c2c1
  0.3%	-9.6%
COc1ccccc1CNC(=O)c1cccn1-c1nnc(N2CCCCC2)s1
  13.8%	63.4%[activator]
COc1ccc(C(=O)/C(C#N)=C\c2ccc(Cl)c(Cl)c2)cc1
  8.4%	2.4%
CCCCc1nn2c(=O)cc(COC(=O)c3ccc(NC(=O)C(CC)CC)cc3)nc2s1
  0.0%	-6.9%
Cc1c(C(=O)OC2CCCCC2)[nH]c2c1C(=O)CC(c1ccc(F)cc1)C2 (stereo not given)
  -19.9%	-13.8%
COC(=O)/C(=C\C(C#N)=C/N(C)C)C(C)=O
  4.7%	9.5%
O=C(O)c1cc(=O)c2c(OCC(O)COc3cccc4oc(C(=O)O)cc(=O)c34)cccc2o1
  -1.3%[11.5 µM]	-0.6%
Nc1cc(=O)[nH]c(SCc2ccccc2Cl)n1
  -7.5%	-22.9%
c1ccc2cc(CNC3CC3)ccc2c1
  0.0%	17.9%
CCOC(=O)c1ccc(NC(=O)CCS(=O)(=O)c2cc(-c3cc(C)no3)ccc2OC)cc1
  4.1%	5.6%
O=C(CCc1ncc(-c2ccccc2Cl)o1)N1CCOCC1
  175.0%[activator]	1.5%
O=C(/C=C/c1ccc(Cl)c(Cl)c1)c1ccc(OC(F)F)cc1OC(F)F
  46.4%[activator]	27.3%
Cc1cc(Nc2cccc(C(=O)O)c2)n2nc(C)nc2n1
  -13.8%	-9.0%
Cc1ccc(Nc2ncnc3sccc23)cc1C
  197.2%[activator]	-3.8%[1.06 µM]
COC(=O)c1ccc(CNC(=O)Cc2ccc(C)cc2)cc1
  8.6%	-3.3%
O=C(NC(=O)c1ccccc1)Nc1ccc(-c2cc(C(F)(F)F)nn2-c2ccccc2)cc1
  1.4%	-5.0%
COc1cc(Cl)c(C)cc1NC(=O)c1cc2c(Cl)nc3ccc(C)cc3c2s1
  -14.5%	-0.4%
CNC(=S)NNC(=O)c1ccc(NNC(=S)NC)cc1
  1.7%	?
COc1ccc(NC(=O)c2cc(OC)c3cc(Cl)ccc3n2)cc1
  24.8%	7.2%
N#Cc1nc(Cc2cccc3ccccc23)oc1N1CCCC1
  -10.3%	-15.5%
O=C(NCc1ccc(Cl)cc1)c1ccc(Cn2c(=O)c3cccn3c3cccnc32)cc1
  -9.8%	-6.0%
CN(CC(=O)NCc1ccc(F)cc1)C(=O)c1ccc2c(c1)nnn2C1CCCC1
  64.0%[activator]	76.0%[activator]

Part of the list above in order of SMILES length, largest number first:
Values run as follows: StopGo FLuc	StopGo RLuc
Cc1ccc(NC(=O)CN2C(=O)CCn3nc(-c4cccn4C)cc32)cc1
  -12.7%	-13.3%
O=C(CCc1ncc(-c2ccccc2Cl)o1)N1CCOCC1
  175.0%[activator]	1.5%
COC(=O)/C(=C\C(C#N)=C/N(C)C)C(C)=O
  4.7%	9.5%

Taken from above:
O=C(CSc1nnc(-c2cccs2)o1)Oc1ccccc1 in StopGo RLuc is listed with -11.1%
Nc1cc(=O)[nH]c(SCc2ccccc2Cl)n1 in StopGo FLuc is listed with -7.5%
CN(Cc1c(F)cccc1Cl)C(=O)CCNC(=O)Nc1ccccc1 in StopGo FLuc is listed with 14.6%

The main list resumes with the 5 entries that preceded the break.
Values run as follows: StopGo FLuc	StopGo RLuc
CNC(=S)NNC(=O)c1ccc(NNC(=S)NC)cc1
  1.7%	?
COc1ccc(NC(=O)c2cc(OC)c3cc(Cl)ccc3n2)cc1
  24.8%	7.2%
N#Cc1nc(Cc2cccc3ccccc23)oc1N1CCCC1
  -10.3%	-15.5%
O=C(NCc1ccc(Cl)cc1)c1ccc(Cn2c(=O)c3cccn3c3cccnc32)cc1
  -9.8%	-6.0%
CN(CC(=O)NCc1ccc(F)cc1)C(=O)c1ccc2c(c1)nnn2C1CCCC1
  64.0%[activator]	76.0%[activator]
Cc1ccc(NC(=O)CSC2=NC(C)(C)N=C2c2ccc(Cl)cc2)cc1C
  ?	?
C/C(=N/NC(=O)c1ccccc1)c1cccs1
  26.9%	16.9%
O=c1c2ccccc2c(-c2ccc(F)cc2)nn1-c1cc(N2CCOCC2)ccc1[N+](=O)[O-]
  -13.5%	47.4%[activator]
O=C(CSc1ccc2c(c1)OCCCO2)N1CCC(Cc2ccccc2)CC1
  -1.2%	1.0%
COc1ccc([C@@H]2C[C@H]3[C@@H](CN2)CON3C)cc1
  12.8%	5.1%
COC(=O)c1c(NC(=O)c2nc(SCc3ccccc3C)ncc2Cl)sc2c1CCCC2
  ?	?
Cc1cccc(-c2nc(C)c(CCNC(=O)c3cccs3)s2)c1
  270.7%[activator]	6.8%
COc1nc(-c2ccc(C)cc2)ccc1-c1noc(C)n1
  173.9%[activator]	-8.4%
Cc1ccc(C)c(Nc2nnc(-c3ccc(C)c(S(=O)(=O)NCC4CCCO4)c3)c3ccccc23)c1 (stereo not given)
  -24.9%	289.5%[activator]
COc1ccc(C2Nc3ccccc3S(=O)(=O)N2)cc1OC (stereo not given)
  -7.0%	0.1%
CN1C(=O)Cc2cc(S(=O)(=O)CCC(=O)Nc3ccccc3)ccc21
  -8.4%	7.3%

These rows are one share of the data. The share of hits here may be higher or lower than overall.
